Assay outcomes from PubChem.
Six1-Eya2 inh: qHTS Assay for Inhibitors of the Six1/Eya2 Interaction. 360,000 compounds, 0.56% hits. activity change, % (no concentration beside the values). Homeobox protein SIX1 (Homo sapiens) + Protein phosphatase EYA2 (Homo sapiens), …. AlphaScreen GST-Six1/His-Eya2 binding, biochemical; active compounds read low; control for the full effect not named in the record; in the data active = activity change below about -65%; inconclusive = about -30% to -65%; inactive = above about -30%; note: % is set by controls: 0 for no effect and ±100 for the full control effect
Target sequence (O00167 whole entry, looked up): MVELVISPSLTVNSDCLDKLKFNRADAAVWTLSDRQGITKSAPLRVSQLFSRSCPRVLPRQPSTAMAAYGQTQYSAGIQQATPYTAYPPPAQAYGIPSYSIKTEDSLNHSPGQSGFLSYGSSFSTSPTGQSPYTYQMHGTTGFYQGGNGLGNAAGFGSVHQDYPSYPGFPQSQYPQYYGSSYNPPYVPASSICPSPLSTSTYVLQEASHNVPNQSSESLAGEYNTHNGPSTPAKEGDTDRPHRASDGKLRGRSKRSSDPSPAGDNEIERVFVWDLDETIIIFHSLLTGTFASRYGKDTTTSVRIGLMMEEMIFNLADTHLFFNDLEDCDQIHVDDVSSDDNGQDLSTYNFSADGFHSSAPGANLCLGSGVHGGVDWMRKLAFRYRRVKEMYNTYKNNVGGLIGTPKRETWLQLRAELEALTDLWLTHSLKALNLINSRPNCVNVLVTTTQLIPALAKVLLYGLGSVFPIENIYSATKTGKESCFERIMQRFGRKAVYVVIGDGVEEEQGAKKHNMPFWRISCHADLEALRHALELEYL
Target sequence (Q15475 whole entry, looked up): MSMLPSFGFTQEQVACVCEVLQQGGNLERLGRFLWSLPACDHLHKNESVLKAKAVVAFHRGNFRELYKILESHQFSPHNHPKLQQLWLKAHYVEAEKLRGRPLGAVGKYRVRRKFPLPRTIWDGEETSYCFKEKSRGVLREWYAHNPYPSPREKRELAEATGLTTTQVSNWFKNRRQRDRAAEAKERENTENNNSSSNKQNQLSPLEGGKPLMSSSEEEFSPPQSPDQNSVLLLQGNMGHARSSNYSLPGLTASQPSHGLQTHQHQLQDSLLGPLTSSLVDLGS
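Homogeneous AlphaScreen proximity assay pairing GST-Six1 with His-tagged Eya2 (added as 5X mix: 250 nM and 500 nM) in 50 mM Tris pH 8.0, 300 mM NaCl, 1 mM TCEP. Glutathione donor and nickel acceptor beads; 1 h, 37 °C, dark.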
PINK1 expr mod: A Quantitative High throughput Screen to Identify Chemical Modulators of PINK1 Expression | 410,000 compounds, 0.2% hits | Potency, µM (doses to about 76.6 µM), without a hit: at the top dose activation (PINK1 increase), actives largely listed as activators | AID 624263, 2012 | PINK1 immunofluorescence, high-content cytometry, 24 h; active = well fitted activation curve with a large enough effect; inconclusive = small, poorly fitted or top-dose-only effect; inactive = flat fitted curve, though single readings scatter; cell line not stated here;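 note: potency is the fitted concentration of half-maximal effect; % of control where 0% means no effect; nearly all actives have a fitted effect of over 65% in size; a mitochondrial uncoupler was the plate control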
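Stable cell line treated 24 h with compounds at 5 concentrations (CCCP controls), then fixed and immunostained for PINK1 plus nuclear and cell stains; PINK1 immunofluorescence quantified by laser-scanning microplate cytometry.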
TRPML1 ag: qHTS for Agonists of the Human Mucolipin Transient Receptor Potential 1 (TRPML1); AID 624414, 2012; TRPML1-expressing cells, Ca2+ dye fluorescence, FDSS; host cell line not named in the record; reference of the full effect not given here; 410,000 compounds, 0.12% hits; activation, % (test concentration not listed); in the data active = activation above about 50%; inconclusive = about 30% to 50%; inactive = below about 30%; note: 0% is about no effect; the text of the record puts the active cut at 80%
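Kinetic FDSS Ca2+ read in Tet-induced TRPML1-DL cells (ABD Ca8 dye plus quencher, 45-90 min RT loading): baseline, then compound, then 110 s agonist window; EC80 agonist 54-4 at 4uM final added afterwards for a 110 s antagonist window.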
TRPML1 blocker: qHTS for Inhibitors of the Human Mucolipin Transient Receptor Potential 1 (TRPML1); TRPML1-inducible cells, Ca2+ dye fluorescence, FDSS; active compounds read low; inhibition of EC80 agonist-evoked calcium signal; activity change, negative = inhibition, % (no concentration beside the values); 390,000 compounds, 0.02% hits; AID 624415, 2012; in the data active means activity change below about -50%; inconclusive means about -30% to -50%; inactive means above about -30%;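 note: stimulus is agonist 54-4 at its EC80 concentration; % is set by controls: 0 for no effect and ±100 for the full control effect; compound concentration not given in the record; the text of the record puts the active cut at -80%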
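Calcium fluorescence in TRPML1-DL cells induced overnight with Tet: a 110 s read after compound pin addition, then a 110 s antagonist read after challenge with 54-4 at 4 uM final (EC80).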
D2 agonist: Beta-Arrestin HTS for Positive Allosteric Modulators of the Human D2 Dopamine Receptor: Agonists | DiscoveRx PathHunter D2 beta-arrestin, luminescence, 90 min; 100% = 57 uM dopamine signal | activation, % (concentration not given with the values) | 360,000 compounds, 0.084% hits; in the data active = activation above about 40%; inconclusive = about 15% to 40%; inactive = below about 15%; note: the text of the record calls up to 30% inactive
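Agonist mode: compounds alone added to overnight-plated D2 PathHunter cells for 90 min at 37 C, with 57 uM final dopamine (EC100) defining full response. Beta-arrestin recruitment detected by chemiluminescent reagent, read after 1 h at ambient temperature.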
CtBP-E1A inh: qHTS Assay for Inhibitors of the CtBP/E1A Interaction; 340,000 compounds, 0.49% hits; AlphaScreen GST-E1A/His-CtBP binding, 1536-well; active compounds read low; control for the full effect not named in the record; activity change, % (concentration not given with the values); CtBP / adenovirus E1A interaction (AlphaScreen); in the data active means activity change below about -65%; inconclusive means about -30% to -65%; inactive means above about -30%; note: % is set by controls: 0 for no effect and ±100 for the full control effect
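In 5 uL wells, 23 nL compound meets equimolar GST-E1A and His-CtBP (5X stock 125 nM each) for 2 h, 37 °C. Beads (5X, 50 ug/mL) then 1 h, 37 °C, dark.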
An asterisk follows results filed as active; ? = inconclusive; / = not tested or not shown; & = joins results of further samples; [ ] = another dose, or the depositor's remark.

SMILES | Six1-Eya2 inh | PINK1 expr mod | TRPML1 ag | TRPML1 blocker | D2 agonist | CtBP-E1A inh
Cc1ccc(C(=O)NCCCc2ccccc2)c(Cl)c1 | 6.2 | 0.0% | 0.5 | 12.9 | 4.8 | 13.0
CN1CCC(N(CCc2ccccc2)C(=O)CCC(=O)O)CC1 | 15.2 | 0.0% | 0.3 | 8.3 | -2.9 | -2.2
CC(=O)Nc1c(C(=O)O)oc2ccc(Cl)cc12 | -13.4 | -0.1% | 0.0 | -25.9 | -3.2 | -4.5
CC(=O)N1CCN(C(=O)c2cc(S(=O)(=O)N(C)Cc3ccccc3)ccc2Cl)CC1 | -0.7 | 2.8% | -0.8 | 9.8 | -0.2 | -2.4
Cc1ccc(S(=O)(=O)NCCC(=O)Nc2cc(S(=O)(=O)N(C)C)ccc2C)cc1C | 2.6 | 1.4% | 1.0 | 17.3 | 2.3 | -1.3
CC1CN(C2CCN(C(=O)c3ccccc3Cl)CC2)CC(C)O1 (stereo not given) | 4.4 | -2.1% | 1.0 | 11.8 | -1.5 | 1.7
Cc1cc(Cl)c2oc(C(=O)NCC(C)(C)N3CCOCC3)c(C)c2c1 | 1.2 | 1.8% | -0.9 | 5.7 | -3.7 | 6.4
CC(=O)N1Cc2cc(C(=O)NCC(F)(F)F)nc(-c3cccc(-c4cc5ccccc5o4)c3)c2[C@@H]1CCO | 3.6 | 4.5% | 0.4 | / | / | 5.7
COc1ccc2c(c1)CCc1cnc(N)nc1-2 | 0.7 | -0.2% | -0.1 | 3.7 | -5.6 | 0.0
CCCc1cc(=O)oc2cc(C)cc(OCC(=O)NCCCN3CCOCC3)c12 | -5.8 | -1.5% | -1.1 | 19.6 | 0.6 | -2.7
CCN(C(=O)C1=COCCO1)c1nc2c(C)cccc2s1 | 7.3 | 4.2% | 0.0 | 22.9 | -2.2 | 1.8
O=C(NCc1cn2ccccc2n1)c1ccc2c(c1)OCO2 | 4.9 | 0.9% | -1.1 | -2.1 | -2.1 | 3.5
Cc1cc(C)cc(NC(=O)Cc2ccc(S(=O)(=O)N3CCCC3)s2)c1 | 1.3 | 2.7% | 3.7 | 26.2 | -1.1 | -16.4
CCOCc1nnc(NC(=O)c2c(OC)cccc2OC)s1 | -2.5 | -1.0% | -0.6 | -8.7 | -1.4 | 2.6
Cc1ccc(C(=O)Nc2cccc(C(F)(F)F)c2)cc1NC(=O)c1cnnc2ccccc12 | 7.6&-5.9 | 1.5%&7.1% | 0.0&0.2 | -14.1&7.3 | -4.5&0.0 | 4.0
COC(=O)[C@H](CC(C)C)NC(=O)N1CCCCC1 | 2.2 | -1.5% | -1.0 | 5.4 | 0.5 | 5.8
CC(NC(=O)c1ccco1)C(=O)Nc1nccs1 (stereo not given) | -1.6 | -1.9% | -0.6 | 1.3 | 1.6 | 7.2
CCN(CC(=O)Nc1ccccc1C(F)(F)F)C(=O)Cn1c(=O)cnc2ccccc21 | 0.4 | 1.2% | -0.3 | 36.3 | -5.2 | -9.1
COc1ccc(C(=O)Nc2ccnn2C2CCN(C(=O)c3cccnc3)CC2)cc1 | 3.3 | -1.6% | -0.1 | 5.5 | -2.8 | -0.4
CCc1nn(CC(=O)NCCC2=CCCCC2)c(=O)c2cc3cc(F)ccc3n12 | 4.4 | 6.1% | 1.6 | 48.4 | -2.0 | 7.3
CCCCCn1c(C(Cc2ccccc2)NC(C)=O)nc2ccccc21 (stereo not given) | 3.1 | 0.6% | 0.8 | 1.3 | -3.1 | 2.6
COc1ccc(Cl)cc1C(=O)OCC(=O)NC(=O)c1cccn1C | 2.4 | -1.1% | 2.8 | -12.2 | -3.4 | -6.1
CSc1oc(-c2ccc(F)cc2)nc1S(=O)(=O)c1ccc(Br)cc1 | / | -1.2% | -1.0 | -5.0 | / | /
CCOC(=O)C(C)Sc1nnc2cc(C)c3ccccc3n12 (stereo not given) | / | 3.0% | 1.0 | 0.6 | / | /
O=[N+]([O-])c1ccc(N2CCN(S(=O)(=O)c3ccccc3)CC2)cc1N1CCc2ccccc2C1 | 2.0 | -0.9% | 0.0 | 34.0 | -4.4 | 15.2
O=C(CSc1nc2ccccc2s1)Nc1cc(S(=O)(=O)N2CCOCC2)ccc1Cl | -5.0 | -0.9% | -0.6 | 14.9 | -2.3 | 1.1
N#CCC(=O)Nc1ccc(C(=O)OCC(=O)N2CCCC2=O)cc1 | -3.9 | -1.3% | -0.7 | 6.9 | -5.5 | 1.9
O=C(Cn1c(=O)n(-c2cccc(Cl)c2)c(=O)c2sc3ccccc3c21)N1CCCC1 | / | 0.2% | 0.1 | 3.5 | / | /
O=C(CNC(=O)c1ccc2ccccc2c1)Nc1ncccc1O | -25.6 | 1.4% | -0.2 | -4.1 | -0.5 | -24.4
COc1ccccc1NC(=O)CC(c1cc(OC)c(OC)c(OC)c1)N1Cc2ccccc2C1=O (stereo not given) | / | -5.0% | 1.9 | -13.2 | / | /
CCOC(=O)CSc1nc2cc3c(cc2cc1C#N)OCCO3 | 14.1 | ? | 3.7 | 17.3 | 0.6 | 1.8
CCN(CC(=O)Nc1c(F)cccc1F)C(=O)CCc1ccc(OC)cc1 | 11.5 | 0.3% | -0.5 | 2.8 | -3.1 | 0.0
COc1ccc(/C=C/C(=O)Nn2cnnc2)cc1 | 18.0 | 1.2% | -0.4 | -28.2 | -2.2 | 9.9
CC(C)c1ccccc1NC(=S)NCc1ccncc1 | 5.1 | -0.9% | 0.3 | -14.4 | 2.4 | 5.0
Cc1onc(-c2ccccc2)c1C(=O)NC(=S)NNC(=O)c1ccco1 | -0.8 | 0.7% | 1.4 | 16.0 | 0.4 | -3.9
CCSc1ncc(Cl)c(C(=O)Nc2c(C(=O)Nc3ccc(Cl)cc3)oc3ccccc23)n1 | / | -0.8% | 0.5 | 6.8 | / | /
O=c1cc(CO)oc(C(Nc2ccccn2)c2ccc(F)cc2)c1O (stereo not given) | 0.1 | ? | 2.5 | -9.0 | -1.1 | -4.3
COc1ccc(N(C(=O)COc2ccc(Br)cc2)S(=O)(=O)c2ccc(C)cc2)cc1 | / | 3.3% | 1.0 | 33.1 | / | /
CC(=O)C1=C(O)C(=Cc2ccccc2)OC1=O | -5.4 | 2.1% | 0.1 | 2.5 | -12.4 | 2.4
O=C(NC1CC1)c1ccc2sc([C@@H]3O[C@H](CO)[C@H](O)[C@H](O)[C@H]3O)nc2c1 | 6.3 | 1.4% | -0.3 | / | -7.9 | 3.8
CCOc1ccc(NC(=S)NCc2nc3ccccc3[nH]2)cc1 | -29.8 | 0.2% | 0.9 | 3.3 | -0.4 | /
CCCC(c1nnnn1CCc1ccccc1)N1CCN(C(=O)c2ccco2)CC1 (stereo not given) | 2.1 | 0.8% | 0.3 | -11.7 | -3.6 | 6.2
COc1ccc(C(=O)Nc2cccc3nc(C)ccc23)c(OC)c1 | -24.3 | 0.3% | 0.3 | -1.2 | 1.1 | 1.5
O=C(Nc1ccc(S(=O)(=O)C(F)F)cc1)c1cccc(S(=O)(=O)N2CCOCC2)c1 | -0.5 | -1.5% | 0.4 | 6.7 | 1.1 | 8.4
Fc1cccc(-c2csc(-c3ccno3)n2)c1 | 15.9 | -0.5% | -1.4 | -5.7 | -5.2 | /
COc1cc(C)ccc1Oc1nc(-c2ccccc2O)nc2ccccc12 | 0.8 | 7.6% | 2.8 | -4.8 | -0.1 | 0.0
COc1ccc(O)c(/C=N/N2CCCCC2)c1 | -14.8 | 4.3% | 0.6 | -17.4 | -2.9 | -19.2
O=C(O)c1ccc2cccnc2n1 | -16.3 | 3.5% | -0.5 | -11.5 | 7.4 | -4.6
Cc1ccc(NS(=O)(=O)c2cccc(C(=O)N3CCCCCCC3)c2)cc1 | 3.5 | -2.5% | 2.0 | -8.9 | 0.6 | -14.9
Nc1nnnn1/N=C/c1ccccn1 | -15.6 | 1.9%[38.3 µM] | 1.6 | -6.3 | -0.2 | -2.1

Entries of single compounds from above. Order of screens: Six1-Eya2 inh	PINK1 expr mod	TRPML1 ag	TRPML1 blocker	D2 agonist	CtBP-E1A inh
COc1ccc(C(=O)Nc2cccc3nc(C)ccc23)c(OC)c1 is entered as -24.3	0.3%	0.3	-1.2	1.1	1.5
O=C(O)c1ccc2cccnc2n1 is entered as -16.3	3.5%	-0.5	-11.5	7.4	-4.6
Nc1nnnn1/N=C/c1ccccn1 is entered as -15.6	1.9%[38.3 µM]	1.6	-6.3	-0.2	-2.1
COc1cc(C)ccc1Oc1nc(-c2ccccc2O)nc2ccccc12 is entered as 0.8	7.6%	2.8	-4.8	-0.1	0.0
Fc1cccc(-c2csc(-c3ccno3)n2)c1 is entered as 15.9	-0.5%	-1.4	-5.7	-5.2	/

(listing goes on)
SMILES | Six1-Eya2 inh | PINK1 expr mod | TRPML1 ag | TRPML1 blocker | D2 agonist | CtBP-E1A inh
CC(CC(=O)Nc1nncs1)c1ccccc1 (stereo not given) | -1.3 | 0.4% | -0.7 | 13.6 | -1.4 | -0.8
COc1ccc(-n2c(Cc3cccs3)nnc2SCC(=O)Nc2ccc3c(c2)OCCO3)cc1 | -7.1 | -0.6% | 2.7 | 4.8 | 3.2 | -6.5
Cc1cc(C(=O)CN(Cc2ccc(F)cc2)S(=O)(=O)c2ccc3c(c2)OCCO3)c(C)n1C | -15.8 | / | -0.3 | -2.8 | -0.7 | -11.6
O=C(NC1CC2CCCC(C1)N2CC(=O)N1CCCc2ccccc21)C1CCCCC1 (stereo not given) | 1.0 | -1.8% | -0.2 | 9.7 | -2.6 | -1.1
COc1ccccc1Oc1ccc(N/C=C/C(=O)C(C)(C)C)cc1 | -8.6 | 8.3% | -0.5 | 2.4 | 7.6 | 0.3
COc1ccccc1/C=C/CN1CCC(Oc2ccc(C(=O)N3CCCCC3)cc2)CC1 | -7.8 | 1.7% | 0.4 | 9.5 | 0.8 | -13.7
Cc1ccc(C)c(Cn2c(=O)n(Cc3ccccc3)c(=O)c3c2c2cc(C)ccc2n3C)c1 | / | 0.4% | -0.1 | 37.7 | / | /
COc1ccc(NC(=O)CN2CCN(CC(=O)Nc3ccccc3OC)CC2)c(OC)c1 | -2.2 | 0.1% | 2.6 | 18.2 | 4.6 | -0.9
CN(C(=O)C1CCCC1)C1CCS(=O)(=O)C1 (stereo not given) | 6.1 | 2.2% | 1.0 | -4.2 | -1.7 | -0.1
NC(=O)c1ccc(NC(=O)COC(=O)c2cc(S(=O)(=O)N3CCOCC3)ccc2N2CCCCC2)cc1 | -5.2 | 0.5% | 1.5 | -17.0 | -2.0 | -10.3
